AF4-AF9 inh – MLL-AF4/AF9 protein interaction inhibition; AlphaScreen, biotin-AF4 peptide binding to FLAG-AF9; P42568; AID 651704; 350,000 compounds, 0.47% hits; inhibition, % at 10 µM;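 active = every replicate reaching a set inhibition limit, whatever the replicate mean, cut at about 25% in these data; inconclusive = mean inhibition reaches that limit but some replicates miss it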;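 note: 0% = plate neutral control median and 100% = total signal loss; the record names both 10 and 1 µM as test concentration; the first replicate is given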
Target sequence (P42568 whole entry, looked up): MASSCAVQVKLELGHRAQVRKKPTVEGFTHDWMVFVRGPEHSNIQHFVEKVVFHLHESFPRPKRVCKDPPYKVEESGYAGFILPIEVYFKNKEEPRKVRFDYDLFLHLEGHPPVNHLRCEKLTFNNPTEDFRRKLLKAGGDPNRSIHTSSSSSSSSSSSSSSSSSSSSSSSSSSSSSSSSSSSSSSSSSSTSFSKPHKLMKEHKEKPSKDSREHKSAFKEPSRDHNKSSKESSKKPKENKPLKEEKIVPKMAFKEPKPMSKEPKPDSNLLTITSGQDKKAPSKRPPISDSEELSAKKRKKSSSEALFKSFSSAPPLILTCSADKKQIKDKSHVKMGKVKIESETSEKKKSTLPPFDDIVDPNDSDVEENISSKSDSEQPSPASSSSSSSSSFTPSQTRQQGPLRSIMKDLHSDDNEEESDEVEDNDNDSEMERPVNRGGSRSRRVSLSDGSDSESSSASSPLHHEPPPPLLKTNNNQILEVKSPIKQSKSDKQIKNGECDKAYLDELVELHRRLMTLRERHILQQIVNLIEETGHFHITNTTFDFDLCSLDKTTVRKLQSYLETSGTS
FGF22 binding – shifts melting point of recombinant human FGF22 | Q9HCT0 | 340,000 compounds, 1.5% hits | AID 651658 | calls only at 9.99 µM | recombinant FGF22 thermal shift, SYPRO orange fluorescence; percent of sucrose octasulfate shift, DMSO zero;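 active = melting point raised past a set limit in the mean and every replicate; inconclusive = no clear call; three in four hits are not shown here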
Target sequence (Q9HCT0 whole entry, looked up): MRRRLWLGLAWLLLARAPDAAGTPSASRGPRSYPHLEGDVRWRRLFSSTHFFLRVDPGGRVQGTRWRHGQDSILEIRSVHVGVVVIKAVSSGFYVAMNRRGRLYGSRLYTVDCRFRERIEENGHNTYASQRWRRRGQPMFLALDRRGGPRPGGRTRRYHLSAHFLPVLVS
HNF4A DNA FP – change in binding of human HNF4 alpha to DNA; P41235; HNF4a-FITC DNA binding, fluorescence polarization, 1 h; activity change, % at 10 µM; 360,000 compounds, 0.3% hits; AID 1224865; in the data active = activity change above about 30%, passing the limit was not always enough;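 note: controls were the assay level and a saturating level of protein; the project sought stronger binding though the title names inhibitors; some compounds called inactive have numbers as strong as hits; positive values seem to mean higher polarization but the record does not say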
RanGTP-Impb inh – inhibitors of RanGTP-importin-beta interaction, primary screen, biochemical, FRET, CFP-Ran, YFP-importin-beta, homogeneous; cell-free CFP-Ran/YFP-importin-beta FRET ratio; inhibition, % (no concentration beside the values); 300,000 compounds, 1.1% hits;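 active = most replicates above 15%; inconclusive = exactly half above 15%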;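 note: 0% = DMSO wells and 100% = Ran loaded with GDP instead of GTP; wells of about 40 µL received 100 nL stock; the first replicate is given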
Vif A3G – inhibitors of Vif binding to APOBEC3G peptide, primary screen, biochemical, TR-FRET, GST-Vif 1-94, biotin-A3G peptide, dose response retest (AID 1117319); TR-FRET GST-Vif / biotin-A3G peptide binding; higher % means a stronger effect; test concentration not given here; strong numbers were not always called active; one-dose inhibition, %; IC50 in µM for titrated hits; 260,000 compounds, 0.57% hits;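 active = above the screen mean plus three standard deviations and confirmed in dose response; inconclusive = results disagree or hit not tested in dose response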;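 note: Vif residues 1-94 fused to GST binding biotinylated APOBEC3G peptide 110-148; 0% = full assay without inhibitor and 100% = GST in place of GST-Vif; retest series ran down from 100 µM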
UCH37 DUB inh – inhibitors of human deubiquitinating enzyme UCH37. Q9Y5K5. purified proteasome/UCH37, Ub-AMC cleavage fluorescence. inhibition, % (test concentration not listed). 330,000 compounds, 0.33% hits. AID 588478;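 active = mean of two replicates above 20%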;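 note: 0% = compound-free wells with enzyme and 100% = wells lacking proteasome; stock transfer was 100 nL into about 20 µL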
Target sequence (Q9Y5K5 whole entry, looked up): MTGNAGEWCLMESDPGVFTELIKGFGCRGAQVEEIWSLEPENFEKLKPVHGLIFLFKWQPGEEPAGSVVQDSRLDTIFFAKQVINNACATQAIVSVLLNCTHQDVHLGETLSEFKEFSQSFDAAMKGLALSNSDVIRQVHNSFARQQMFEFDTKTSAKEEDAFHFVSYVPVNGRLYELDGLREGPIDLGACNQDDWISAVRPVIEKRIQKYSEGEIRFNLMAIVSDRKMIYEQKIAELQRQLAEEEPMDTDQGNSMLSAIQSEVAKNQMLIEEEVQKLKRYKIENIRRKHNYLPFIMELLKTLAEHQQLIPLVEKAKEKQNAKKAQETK
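Material: human UCH37 enzyme supplied as purified proteasome complex / Amount: 0.15 nM proteasome as dispensed / Buffer or medium: pH 7.4 Tris-HCl (50 mM) with ovalbumin, ATP-MgCl2, DTT / Times: preincubation 30 min, reaction 25 min, room temperature / Technique: AMC fluorescence from Ub-AMC cleavage, excitation 355 nm, emission 460 nm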
E coli growth – inhibitors of Escherichia coli growth | AID 1053175 | 330,000 compounds, 0.21% hits | OD600 absorbance (test concentration not listed) | OD600, 23 h; hits give low values;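 active = OD600 absorbance below the run mean of sample wells minus 3.6 SD, in any replicate, cut at about 0.56 in these data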;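 note: stock transfer was 300 nL into about 60 µL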
* hit, by the source's call; i = inactive; ? = inconclusive; nt = not tested or not shown. The list is partial; count on the stated rates, not on these rows.

Each structure is followed by: AF4-AF9 inh | FGF22 binding | HNF4A DNA FP | RanGTP-Impb inh | Vif A3G | UCH37 DUB inh | E coli growth
1. Cc1ccccc1NS(=O)(=O)c1ccc(C(=O)NCCCN2CCCC2=O)cc1
 : -4.9 | i | 7.7 | 1.5 | -6% | 4.6 | 0.7
2. Cc1cc(CSc2ccccc2)ccc1NC(=O)c1ccc(Cl)c([N+](=O)[O-])c1
 : nt | nt | 2.2 | 3.1 | 21% | 2.2 | 0.75
3. O=C(CCCSc1ccccc1)Nc1ccc(Cl)c(S(=O)(=O)N2CCOCC2)c1
 : -5.0 | i | 6.0 | nt | -14% | 2.5 | 0.64
4. CC(C)C(=O)N1c2ccccc2NC2=C(C(=O)CCC2)C1c1ccc(N(C)C)cc1 (stereo not drawn)
 : nt | nt | -1.0 | -0.2 | ? | 9.5 | 0.71
5. NC(=O)Cn1cc(C(=O)C(=O)N2CCOCC2)c2ccccc21
 : -0.1 | nt | -1.7 | -0.2 | nt | 5.4 | 0.76
6. Cc1ccc(-c2c(C#N)c(N)nc3c2CCCC3)o1
 : -0.6 | i | -7.4 | 0.0 | 1% | -82 | 0.61
7. O=C(O)c1[nH]c2ccccc2c1NS(=O)(=O)c1ccc(F)cc1
 : 1.1 | i | 1.2 | 0.5 | nt | -2.9 | 0.67
8. Cc1nnc(SCC(=O)Nc2sccc2C(N)=O)n1Cc1ccccc1
 : -40 | i | -0.2 | -0.2 | -2% | 3.4 | 0.66
9. COc1cccc(NC(=O)c2nnn(CC(=O)Nc3cc(C)cc(C)c3)c2N)c1
 : -0.1 | i | -1.8 | 1.7 | 3% | 1.1 | 0.67
10. CCCc1cc(=O)[nH]c(SCc2cccnc2)n1
 : nt | nt | -2.0 | -2.1 | -4% | 6.2 | 0.76
11. O=C1COc2ccc(C(=O)COC(=O)c3ccco3)cc2N1
 : 2.9 | i | -1.2 | 3.0 | 13% | 4.7 | 0.72
12. COc1ccc(C(O)(CCC(C)C)C(CN2CCOCC2)c2ccc(Cl)cc2)cc1 (stereo not drawn)
 : 7.9 | i | -3.0 | -3.3 | 3% | 0.7 | 0.68
13. O=C(O)CNC(=S)NCc1ccccc1
 : -1.8 | i | 0.8 | -1.0 | 5% | nt | nt
14. C=C(C)c1cccc(C(C)(C)NC(=O)Nc2nncs2)c1
 : -3.2 | i | 3.8 | 1.2 | 6% | 1.8 | 0.66
15. OCCNCc1ccc(-c2ccccc2)cc1
 : 0.7 | i | -0.8 | 1.5 | 11% | 2.1 | 0.72
16. CCOc1ccccc1-c1cnc(NC)cn1
 : 3.2 | i | 2.8 | nt | nt | nt | nt
17. COc1ccc(CCNCC(C)c2ccccc2)cc1 (stereo not drawn)
 : 0.9 | i | 2.1 | -2.3 | 1% | 4.1 | 0.69
18. COc1ccc(CNC(=O)Nc2ccc3c(c2)N(C)C(=O)CS3)cc1
 : -0.4 | i | 2.4 | 1.5 | nt | 3.1 | 0.71
19. NC(=O)C1CCCN(C(=O)c2ccc3c(c2)NC(=O)CS3)C1 (stereo not drawn)
 : 1.8 | i | -3.6 | nt | 4% | -0.3 | 0.71
20. Cn1cnnc1SCc1ccc(C#N)cc1Cl
 : 2.4 | i | 1.2 | -1.3 | 13% | 3.1 | 0.72
21. Cc1cccc(Nc2ncnc(N)n2)c1
 : -2.3 | i | 2.5 | -2.0 | -9% | -2.1 | 0.72
22. CCCCn1c(N)c(N(CC(C)C)C(=O)c2ccc(N(C)S(=O)(=O)c3ccc(C)cc3)cc2)c(=O)[nH]c1=O
 : -2.9 | i | 3.6 | 1.3 | 6% | 1.9 | 0.68
23. O=C(CC(c1ccccc1)c1ccccc1)Nc1ccc2c(c1)OCCO2
 : nt | nt | 0.9 | 2.4 | 14% | 1.8 | 0.73
24. Cc1ccc([N+](=O)[O-])cc1NC(=S)NC(=O)CC(C)(C)C
 : nt | nt | 1.2 | -5.8 | -7% | 2.4 | 0.66
25. COc1ccc(OCC(=O)Nc2nc3cc4c(cc3s2)OCCO4)cc1
 : -0.5 | i | 0.3 | nt | -7% | -2.4 | 0.66
26. O=C(c1cc(COc2ccc(F)cc2F)on1)N1CCOCC1
 : -2.4 | i | 0.6 | -1.0 | nt | 3.0 | 0.7
27. C/C=C(\C)C(=O)N1CCC(C(=O)c2ccccc2)CC1
 : -2.5 | i | -0.7 | -0.3 | 0% | 1.0 | 0.69
28. CCCCn1c(-c2nonc2N)nc2ccccc21
 : nt | nt | 3.0 | 0.3 | -1% | 2.7 | 0.69
29. CC(=O)N1CCc2c(sc(NC(=O)Cc3ccccc3)c2C#N)C1
 : -1.1 | i | -0.8 | -2.5 | nt | 4.8 | 0.65
30. CCCn1c(-c2cccc([N+](=O)[O-])c2)nc2c1c(=O)[nH]c(=O)n2Cc1ccccc1
 : nt | nt | 1.2 | 3.1 | -3% | 1.5 | 0.68
31. Cc1ccc(S(=O)(=O)N2[C@@H](c3ccc(F)cc3)C(C(=O)O)=CC[C@H]2c2cccc(Cl)c2)cc1
 : -1.6 | i | -1.9 | nt | nt | 2.5 | nt
32. C=CCOC(=O)c1cc(-c2ccc(/C=C3\C(=O)NC(=O)C(C#N)=C3C)o2)ccc1Cl
 : nt | nt | -17 | nt | ? | 20 | 0.68
33. O=C(NCCN1CCOCC1)C(=O)NCC1OCCN1S(=O)(=O)c1cc(F)ccc1F (stereo not drawn)
 : -1.3 | i | 1.9 | 2.2 | nt | -0.7 | 0.7
34. CCOC(=O)Cn1nc(-c2ccc(Cl)cc2)cc1N
 : nt | nt | 5.5 | 0.5 | -1% | 4.7 | 0.72
35. Cn1nnnc1SCc1ccc(F)cc1
 : nt | nt | -3.9 | 7.7 | 0% | 0.5 | 0.66
36. CCOc1ccccc1NC(=O)CCNC(=O)c1ccc(Cl)cc1
 : -6.9 | i | 2.3 | nt | -4% | -0.6 | 0.67
37. COc1ccc(C(=O)N2CCC3(CC2)NCCc2[nH]cnc23)cc1
 : 0.2 | i | 1.4 | 0.6 | nt | -0.4 | 0.68
38. CCC(C)(C)NC(=O)Cn1c(-c2ccc(C)cc2)noc1=O
 : -16 | i | 0.0 | 4.4 | -1% | 1.9 | 0.68
39. CCc1cc2ccc(C)cc2nc1SCC(=O)Nc1cc(OC)c(OC)cc1C(=O)O
 : nt | nt | -0.2 | -5.5 | -4% | 5.2 | 0.67
40. COc1ccc(Nc2nnc(-c3ccc(C(=O)NCCO)cc3)c3ccccc23)cc1
 : 0.1 | i | 1.6 | -2.4 | nt | 7.4 | 0.7
41. Cc1ccc(C(=O)NCCSC(C)(C)C)cc1[N+](=O)[O-]
 : nt | nt | 2.0 | -1.6 | -4% | 2.8 | 0.68
42. Cc1ccc(Cl)cc1NC(=O)C1CCCN1S(=O)(=O)c1ccc(-c2ccc(=O)[nH]n2)s1 (stereo not drawn)
 : 3.9 | i | 2.5 | 7.4 | nt | 0.9 | 0.71
43. CCCNC(=O)c1sc2c(c1C(=O)Nc1ccccn1)CCCC2
 : -1.7 | i | -1.4 | ? | nt | -7.6 | 0.71
44. O=C(NC(=S)N1CCN(c2ccc([N+](=O)[O-])cc2)CC1)c1ccccc1Cl
 : -2.7 | i | 0.7 | 6.5 | 1% | 5.5 | 0.7
45. O=C(CCCCCN1C(=O)c2cccc([N+](=O)[O-])c2C1=O)Nc1ccccc1F
 : 0.7 | i | -3.9 | -2.4 | nt | 3.6 | 0.67
46. C/C(=N/N=C1/NC(=O)CC(C(=O)O)S1)c1ccccc1 (stereo not drawn)
 : nt | nt | 6.8 | -1.1 | 11% | nt | nt
47. CCCCNC(=O)NC(C(=O)OC)C12CC3CC(CC(C3)C1)C2 (stereo not drawn)
 : -0.4 | i | -0.9 | 4.7 | nt | 1.2 | 0.71
48. c1ccc2oc(SCc3cn4ccccc4n3)nc2c1
 : -45 | i | 1.1 | ? | ? | 2.2 | 0.57
49. NC(=O)c1ccccc1NC(=O)C1CCCO1 (stereo not drawn)
 : -2.0 | i | 0.6 | 2.3 | nt | -0.1 | 0.69
50. CC(C)[C@H](NC(=O)N1CCn2c1nc1ccccc12)C(=O)N[C@H](C(=O)O)c1ccccc1
 : -1.7 | i | 1.7 | 5.0 | nt | 0.6 | 0.75
51. CCN(CC)S(=O)(=O)c1ccc(S(=O)(=O)NCC2CCCO2)cc1 (stereo not drawn)
 : 2.2 | i | -1.2 | 2.5 | nt | 2.9 | 0.71
52. CC1Cc2ccccc2N1C(=O)CN(C)CC(=O)Nc1ccc(F)cc1 (stereo not drawn)
 : -2.8 | i | -2.1 | nt | nt | 1.3 | 0.66
53. CCCCCCOc1ccc(N2C(=O)CC(N3CCN(C(=O)c4ccco4)CC3)C2=O)cc1 (stereo not drawn)
 : nt | nt | 3.0 | 0.7 | -6% | 1.3 | 0.71
54. CN(C(=S)NC(=O)c1ccccc1)c1c(N)n(Cc2ccccc2)c(=O)[nH]c1=O
 : -8.6 | i | 3.2 | 3.8 | -11% | -0.9 | 0.71
55. COc1ccc(CCNC(=O)CSc2nc(N)c3c(C)c(C)oc3n2)cc1OC
 : nt | nt | 1.0 | -0.7 | 2% | -1.1 | 0.77
56. Nc1nc(SCC(=O)Nc2ccccc2)nc2nc3c(cc12)CCCC3
 : nt | nt | -0.5 | -2.0 | nt | -20 | 0.72
57. COc1ccc(OC)c(/C(O)=C/C(=O)C(=O)Nc2ccccc2OC)c1
 : nt | nt | -4.1 | 3.8 | >100µM* | nt | nt
58. Cc1ccc(CN2CCN(C/C=C/c3ccc(F)cc3)CC2CCO)o1 (stereo not drawn)
 : -15 | i | 0.7 | 3.9 | nt | 1.6 | 0.65
59. O=C(Nc1cccc2ccccc12)N1CCN(Cc2ccc3c(c2)OCO3)CC1
 : 3.6 | i | -2.0 | -5.6 | 0% | -4.6 | 0.72
60. CCOC(=O)CC(NC(=O)c1ccccc1F)c1ccc(C)cc1 (stereo not drawn)
 : -0.6 | i | 1.5 | 5.6 | 6% | 2.7 | 0.69

Carrying on.
Each structure is followed by: AF4-AF9 inh | FGF22 binding | HNF4A DNA FP | RanGTP-Impb inh | Vif A3G | UCH37 DUB inh | E coli growth
61. Cc1c(C(O)CN2CCC(C(N)=O)CC2)c2ccccc2n1C (stereo not drawn)
 : nt | nt | -0.7 | -7.3 | 1% | -4.7 | 0.74
62. CCc1cc(C(=O)Nc2cc(S(=O)(=O)N3CCCCC3)ccc2N2CCN(C)CC2)sc1C
 : 3.0 | nt | -0.8 | nt | 0% | nt | nt
63. CN(CC(=O)Nc1ccc(F)cc1)C(=O)COC(=O)c1ccccc1
 : 8.8 | i | -2.0 | 0.2 | nt | 3.6 | 0.72
64. O=C(COC(=O)CCc1ccc(S(=O)(=O)N2CCOCC2)cc1)NCc1ccccc1
 : 0.0 | nt | 0.8 | 0.9 | -11% | 0.1 | 0.66
65. CC(C)(C)NC(=O)C1CCN(C(=O)c2ccco2)CC1
 : -2.1 | i | 3.5 | -0.4 | 1% | 2.6 | 0.66
66. Cn1c(CSCc2ccc(Cl)c(Cl)c2)nnc1SCC(=O)Nc1nccs1
 : nt | nt | 0.0 | -6.9 | 6% | 2.3 | 0.75
67. O=C(CCN1C(=O)C2C3C=CC(C3)C2C1=O)NC1CCCCC1 (stereo not drawn)
 : 2.2 | i | 4.5 | 0.6 | nt | nt | nt
68. COc1ccc(NC(=O)N(C)[C@H]2C[C@H]3c4[nH]c5ccc(-c6ccc(OC)cc6)cc5c4CCN3C[C@H]2[C@H](C)O)cc1
 : 5.8 | i | 0.1 | nt | -8% | nt | nt
69. CC1Cc2ccccc2N1S(=O)(=O)c1cccc(C(=O)Nc2cccnc2)c1 (stereo not drawn)
 : -31 | i | 1.4 | 0.4 | nt | 3.4 | 0.67
